# High-throughput results deposited in PubChem by National Center for Advancing Translational Sciences (NCATS).
# TRPML1 agonist = human mucolipin-1 channel agonism; Q9GZU1; TRPML1-expressing cells, Ca2+ dye fluorescence, FDSS; host cell line not named in the record; reference of the full effect not given here; activation, % (concentration not given with the values); hit rate 0.12% among 410,000; AID 624414; in the data active = activation above about 50%; inconclusive = about 30% to 50%; inactive = below about 30%; note: 0% is about no effect; the text of the record puts the active cut at 80%
# Target sequence (Q9GZU1 whole entry, looked up): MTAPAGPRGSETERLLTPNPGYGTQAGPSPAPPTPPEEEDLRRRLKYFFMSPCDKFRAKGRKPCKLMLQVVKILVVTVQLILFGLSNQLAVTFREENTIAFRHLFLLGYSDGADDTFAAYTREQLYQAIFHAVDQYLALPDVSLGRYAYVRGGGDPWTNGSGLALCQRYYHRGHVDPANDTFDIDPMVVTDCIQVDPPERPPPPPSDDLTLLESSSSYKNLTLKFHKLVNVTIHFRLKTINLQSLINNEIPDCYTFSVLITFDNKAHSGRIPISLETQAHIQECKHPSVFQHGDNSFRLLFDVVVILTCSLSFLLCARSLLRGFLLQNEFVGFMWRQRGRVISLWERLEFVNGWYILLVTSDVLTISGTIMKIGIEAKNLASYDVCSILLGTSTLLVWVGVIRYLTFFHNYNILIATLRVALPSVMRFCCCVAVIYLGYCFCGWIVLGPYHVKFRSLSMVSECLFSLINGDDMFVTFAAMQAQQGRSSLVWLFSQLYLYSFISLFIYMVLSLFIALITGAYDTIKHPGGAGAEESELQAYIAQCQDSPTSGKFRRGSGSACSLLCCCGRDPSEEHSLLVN
#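 Cells: TRPML1-DL, 1X Tet inducer, ~16 h at 37 degrees C/5% CO2. Dye: ABD Ca8 no-wash + quencher, 45-90 min RT. Read: 10 s baseline, compound add, 110 s agonist phase; 54-4 EC80 (4uM final), 110 s antagonist phase.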
# CtBP-E1A blk = inhibitors of CtBP/E1A interaction | hit rate 0.49% among 340,000 | AID 651724 | activity change, % (test concentration not listed) | AlphaScreen GST-E1A/His-CtBP binding, 1536-well; active compounds read low; control for the full effect not named in the record; in the data active means activity change below about -65%; inconclusive means about -30% to -65%; inactive means above about -30%; note: % is set by controls: 0 for no effect and ±100 for the full control effect
#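 Steps: dispense buffer (Tris pH 8.0, NaCl 300 mM, TCEP 1 mM, BSA, Tween 20); add 5X protein mix (GST-E1A, His-CtBP, 125 nM each); pin 23 nL compound; 2 h at 37 °C, dark; add 5X beads (50 ug/mL); 1 h; read.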
# D2 potentiator = human D2 receptor positive allosteric modulation | P14416 | DiscoveRx D2 beta-arrestin cells, luminescence, 90 min; 100% = 57 uM dopamine signal | potentiation, % (concentration not given with the values) | hit rate 0.23% among 360,000 | AID 624464; active = potentiation of 50% or more; inconclusive = 30% to 50%; inactive = 30% or less;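 note: compound concentration not given in the record; tested on top of an EC20 dose of dopamine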
# Target sequence (P14416 whole entry, looked up): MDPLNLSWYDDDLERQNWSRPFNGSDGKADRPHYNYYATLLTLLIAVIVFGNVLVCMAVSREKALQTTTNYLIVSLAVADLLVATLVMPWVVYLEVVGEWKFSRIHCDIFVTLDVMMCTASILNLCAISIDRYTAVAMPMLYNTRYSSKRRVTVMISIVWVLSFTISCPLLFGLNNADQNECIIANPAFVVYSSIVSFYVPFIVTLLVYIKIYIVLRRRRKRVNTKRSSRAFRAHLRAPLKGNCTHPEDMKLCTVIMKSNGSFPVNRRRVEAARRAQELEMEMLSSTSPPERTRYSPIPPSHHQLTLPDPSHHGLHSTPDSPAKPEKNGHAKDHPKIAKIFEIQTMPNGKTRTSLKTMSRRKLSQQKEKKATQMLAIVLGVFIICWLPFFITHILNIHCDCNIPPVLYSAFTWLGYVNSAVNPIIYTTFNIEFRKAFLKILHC
#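 D2 cells co-treated with compound plus 50 nM dopamine (EC20) for 90 min at 37 deg C to detect potentiation. Beta-arrestin recruitment was read as enzyme-fragment luminescence after 1 h at ambient temperature. Full response was set by 57 uM dopamine.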
# TRPV1 potentiator = potentiators of human vanilloid receptor 1 (TRPV1); Q8NER1; TRPV1-expressing cells, Fluo-8 calcium influx, capsaicin EC20 potentiation; host cell line not named in the record; control for the full effect not named in the record; potentiation, % at 8.33 µM; hit rate 0.02% among 320,000; AID 540277; active means potentiation above 80%; inconclusive means 30% to 80%; inactive means below 30%; note: 0% is about no effect
#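 Fluo-8 calcium influx in TRPV1-expressing cells, kinetic read (ex 480/em 520 nm). Compound added and read 3 min for agonist activity, followed by capsaicin at EC20 final and 2 min further read for enhancement.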
# TRPML1 inh = inhibitors of human TRPML1 channel; Q9GZU1; TRPML1-inducible cells, Ca2+ dye fluorescence, FDSS; active compounds read low; inhibition of EC80 agonist-evoked calcium signal; activity change, negative = inhibition, % (test concentration not listed); hit rate 0.02% among 390,000; AID 624415; in the data active means activity change below about -50%; inconclusive means about -30% to -50%; inactive means above about -30%;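 note: stimulus is agonist 54-4 at its EC80 concentration; % is set by controls: 0 for no effect and ±100 for the full control effect; compound concentration not given in the record; the text of the record puts the active cut at -80%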
#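 Tet-induced TRPML1-DL cells loaded with Ca8 no-wash calcium dye were read kinetically on FDSS. Compound addition was followed by EC80 agonist 54-4 (4 uM final); inhibition was read over 110 s.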
# Six1-Eya2 blk = Six1/Eya2 interaction inhibition; AlphaScreen GST-Six1/His-Eya2 binding, biochemical; active compounds read low; control for the full effect not named in the record; hit rate 0.56% among 360,000; activity change, % (no concentration beside the values); AID 651725; in the data active = activity change below about -65%; inconclusive = about -30% to -65%; inactive = above about -30%; note: % is set by controls: 0 for no effect and ±100 for the full control effect
#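 Six1/Eya2 binding was read as AlphaScreen signal after compounds were pinned into GST-Six1 plus His-tagged Eya2 (5X stock 250/500 nM) in pH 8.0 Tris/NaCl/TCEP buffer, beads added, then incubated 1 h, 37 C, dark.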
# * = called active by the depositor; ? = inconclusive; nt = not tested or not shown; & = joins results of further samples.
nr	SMILES	TRPML1 agonist	CtBP-E1A blk	D2 potentiator	TRPV1 potentiator	TRPML1 inh	Six1-Eya2 blk
1	CCOc1ccc(C(=O)n2cc(C(=O)OC)c3ccccc32)cc1	0.3	0.0	-4.4	26.1	-5.9	0.0
2	Clc1cccc(Cl)c1Cn1cnc2c(N3CCCCCC3)ncnc21	0.3	4.4	-4.0	11.8	-1.2	1.4
3	COC(=O)c1cc(Br)c(=O)n(CCc2ccccc2)c1	-0.6	11.9	-8.0	-6.3	-11.8	4.1
4	CCCCCC(=O)Nc1cccc(-c2nc3ncccc3o2)c1	-0.2	?	-7.2	18.0	-8.5	?
5	Cc1ncc(CO)c(/C=N/NC(=S)Nc2ccc(Cl)c(Cl)c2)c1O	0.8	nt	-8.9	4.7	-5.3	-16.0
6	Nc1cc(Cl)ccc1C(=O)OCC(=O)N1CCOCC1	nt	8.3	0.4	8.8	nt	2.2
7	O=C(COC(=O)/C=C/c1cccc(Cl)c1)Nc1cccc(S(=O)(=O)NC2=NCCC2)c1	1.3	-80.2*	-2.1	1.5	20.5	-14.5
8	CCn1c(SCC(=O)N2CCCc3ccccc32)nc2c1c(=O)n(C)c(=O)n2C	2.2	-7.0	-3.5	-16.8	6.2	1.5
9	CCSc1nc(C)c(C(C)=O)cc1C#N	-0.2	11.5	12.3	?	-12.1	5.2
10	CN(Cc1cccc(F)c1)C(=O)CNS(=O)(=O)c1ccc2ccccc2c1	2.2	6.0	-1.3	-2.0	-18.9	-3.5
11	Cc1ccc(C(CNS(=O)(=O)c2ccc(C)cc2)N2CCN(C)CC2)cc1 (stereo unspecified)	-0.4	4.0	-26.2	-7.7	-10.8	-4.2
12	O=C(C1CCCN1S(=O)(=O)c1ccc(Cl)c(Cl)c1)N1CCCCC1 (stereo unspecified)	0.8	-12.2	-12.0	-11.9	-18.6	1.2
13	Cc1onc(-c2c(F)cccc2Cl)c1C(=O)N1CCN(c2ncc(Br)cn2)CC1	-0.6	-2.3	-12.8	-19.4	27.8	-5.1
14	COc1ccc(CNC(=O)CCS(=O)(=O)c2ccc3c(c2)CC(C)N3C(=O)C2CC2)cc1 (stereo unspecified)	-0.5&-0.5	-9.1	-27.9	3.2	-3.5&-17.6	-10.8
15	CN(C)/C=C(/C(=O)c1ccc(Cl)cc1)n1cncn1	-0.5	11.3	1.3	0.5	-5.5	8.5
16	O=C(CC12CC3CC(CC(C3)C1)C2)Nc1c(F)cccc1F	1.5	nt	12.4	26.8	-7.3	3.1
17	CN(C)c1ccc(C(=S)N2CCCCC2)cc1	1.4	-10.3	1.9	-6.0	20.3	-11.5
18	O=C(O)CCn1c(=O)oc2cc(S(=O)(=O)N3CCCC3)ccc21	-0.6	4.7	-11.1	nt	-16.5	5.2
19	O=C(N/N=C/c1ccc(-c2ccccc2Cl)o1)c1ccccc1	0.8	-24.5	-8.9	-11.1	15.9	?
20	Cn1nccc1C(=O)Oc1cccc(/C=N/NC(=O)c2ccccc2O)c1	0.8	nt	-7.0	-2.4	5.6	-0.2
21	CN(C)C(=O)c1c2c(nc3ccccc13)-c1ccccc1CC2	0.0	-2.5	-12.2	-10.1	-2.8	-2.0
22	CCOC(=O)C(C)On1c(SC(C)C(=O)OCC)nc2ccccc2c1=O (stereo unspecified)	0.6	3.6	-9.6	-6.8	8.2	2.6
23	CCNC(=O)N1CCNC(=O)C1CC(=O)OC (stereo unspecified)	1.5	5.9	4.6	4.2	12.9	8.0
24	CCOc1ccc(N(C)S(=O)(=O)c2ccc3[nH]cc(C(=O)NCC(OC)OC)c(=O)c3c2)cc1	0.7	nt	6.8	12.9	-11.5	-8.7
25	CC(=O)CCC(=O)NC1CCCc2c1cnn2-c1ccc(C(C)(C)C)cc1 (stereo unspecified)	-0.4	5.3	1.5	-3.2	9.5	0.0
26	COC(=O)c1cc(S(=O)(=O)N2c3ccccc3CC2C)c[nH]1 (stereo unspecified)	1.1	7.5	-2.0	-6.8	2.7	2.2
27	Cc1nnc(SCC(=O)NN2C(=O)NC3(CCCCC3)C2=O)s1	-0.2	3.7	-8.1	0.0	-20.6	-0.5
28	Fc1ccc(NC(=S)Nc2nccs2)cc1	0.4	0.9	-19.7	7.2	46.1	-4.7
29	Cc1nn(S(=O)(=O)c2ccccc2)c(C)c1S(=O)(=O)N1CCOCC1	-0.2	0.7	-10.1	?	-15.4	18.0
30	Cc1ccc(N(CC(=O)NCc2ccc(F)cc2)S(=O)(=O)c2c(C)n[nH]c2C)cc1	-0.6	33.5	-0.8	2.6	8.2	-10.4

# 3 of these compounds, set out differently.
# Results follow in this order: TRPML1 agonist | CtBP-E1A blk | D2 potentiator | TRPV1 potentiator | TRPML1 inh | Six1-Eya2 blk
[21] CN(C)C(=O)c1c2c(nc3ccccc13)-c1ccccc1CC2
  0.0 | -2.5 | -12.2 | -10.1 | -2.8 | -2.0
[15] CN(C)/C=C(/C(=O)c1ccc(Cl)cc1)n1cncn1
  -0.5 | 11.3 | 1.3 | 0.5 | -5.5 | 8.5
[14] COc1ccc(CNC(=O)CCS(=O)(=O)c2ccc3c(c2)CC(C)N3C(=O)C2CC2)cc1 (stereo unspecified)
  -0.5&-0.5 | -9.1 | -27.9 | 3.2 | -3.5&-17.6 | -10.8

# Back to the main list, starting four compounds before the break.
nr	SMILES	TRPML1 agonist	CtBP-E1A blk	D2 potentiator	TRPV1 potentiator	TRPML1 inh	Six1-Eya2 blk
27	Cc1nnc(SCC(=O)NN2C(=O)NC3(CCCCC3)C2=O)s1	-0.2	3.7	-8.1	0.0	-20.6	-0.5
28	Fc1ccc(NC(=S)Nc2nccs2)cc1	0.4	0.9	-19.7	7.2	46.1	-4.7
29	Cc1nn(S(=O)(=O)c2ccccc2)c(C)c1S(=O)(=O)N1CCOCC1	-0.2	0.7	-10.1	?	-15.4	18.0
30	Cc1ccc(N(CC(=O)NCc2ccc(F)cc2)S(=O)(=O)c2c(C)n[nH]c2C)cc1	-0.6	33.5	-0.8	2.6	8.2	-10.4
31	Cc1onc(-c2ccccc2)c1NC(=O)N(CCC(=O)O)Cc1ccccc1	0.0	10.0	4.3	-0.2	3.6	10.3
32	COc1cccc(OC)c1C(=O)Nc1cccc(NC(=O)c2cccs2)c1	nt	nt	?	27.9	nt	-3.8
33	Brc1cc(Br)c2nc3c(cc2c1)CCC3	1.3	16.0	-3.2	12.7	77.8	3.7
34	CC(C)CCn1c(=O)c2ccccc2n2c(CN3C(=O)NC4(CCC(C)CC4)C3=O)nnc12 (stereo unspecified)	-0.6	-0.2	1.6	-5.4	-2.6	1.5
35	CCOC(=O)CSc1nnc(SCCN2C(=O)c3ccccc3C2=O)s1	0.1	-12.0	5.6	-6.5	-7.5	0.3
36	CC1(C)C(=O)NCCN1C(=O)CCCC(=O)O	-0.1	2.4	-4.2	-2.9	-19.5	3.5
37	CC1(C)CC(=O)C2=C(C1)N=C1c3ccccc3C(=O)C1C2c1ccc(Cl)cc1 (stereo unspecified)	1.3	?	-36.7	-0.6	16.7	?
38	C=CCNC(=O)/C(=C/c1ccccc1OCC)NC(=O)c1ccccc1	-0.2	0.4	-15.8	9.3	2.8	-2.4
39	CC(C)C(=O)N1CCN(c2ccccc2NC(=S)NC(=O)c2cccs2)CC1	0.4	-11.4	-2.2	4.1	13.9	-26.6
40	CCOC(=O)c1ccc(Oc2cn[nH]c2-c2ccc(O)cc2O)cc1	nt	0.3	5.9	-26.8	nt	-1.1
41	C[C@H](CO)N1C[C@H](C)[C@@H](CN(C)C(=O)NC2CCCCC2)Oc2ccc(NC(=O)Nc3ccc(C(F)(F)F)cc3)cc2C1=O	-0.4	2.4	7.7	nt	-0.4	2.9
42	CCCCc1ccc(NC(=O)c2c(C)noc2C)cc1	3.1	2.3	-12.3	6.7	-0.9	10.1
43	O=C(/C=C/c1ccccc1)Nc1cccc(C(=O)NC2CC2)c1	1.1	10.7	-7.2	nt	-6.1	7.9
44	CCCCOc1cccc(C2C(C(=O)c3ccc(C)o3)=C(O)C(=O)N2c2nnc(C)s2)c1 (stereo unspecified)	?	-5.7	-34.1	4.7	-6.2	-14.3
45	Cc1cc(C)cc(NC(=O)CN(Cc2ccccc2)S(C)(=O)=O)c1	1.2	7.5	-4.9	22.6	8.0	4.5
46	CCc1nnc(NC(=O)c2cc(S(=O)(=O)N3CCN(c4ccccc4)CC3)ccc2Cl)s1	-0.2	-5.5	-1.5	15.0	5.5	-14.9
47	O=C1C(Sc2cccc(F)c2)=C[C@@]2(O)CC[C@@H](O)[C@]1(Sc1cccc(F)c1)[C@H]2O	-0.6	4.5	nt	nt	nt	-5.1
48	CC1CCCC(NC(=O)COC(=O)c2ccc3ccccc3n2)C1C (stereo unspecified)	0.5	-1.5	-3.3	-3.3	10.6	0.0
49	COC(=O)[C@@H](NC(=O)c1ccc(OC2CCN(Cc3ccccn3)CC2)cc1)C(C)C	0.7	nt	-9.8	1.9	33.1	7.3
50	Cc1ccc(/C=N/NC(=O)NC2CCCCC2)o1	1.2	-0.2	1.8	-3.6	0.0	-6.9
51	CC(C)C[C@H](NC(=O)c1[nH]cnc1C(=O)N[C@@H](Cc1ccccc1)C(=O)OCc1ccccc1)C(=O)OC(C)(C)C	0.5	-1.0	-11.3	3.9	13.5	-3.4
52	O=C(CN1CCN(c2ncccn2)CC1)NCc1ccc2c(c1)OCO2	-1.3	-1.7	1.2	-6.4	-11.0	-6.6
53	COc1cc(OC)cc(C(=O)N[C@H](C(=O)Nc2cc(C)cc(C)c2)C(C)C)c1	1.5	-4.1	-3.4	0.6	-1.8	7.9
54	Cn1c(=O)c2c(nc(N/N=C/c3ccc(OC(=O)c4ccco4)cc3)n2Cc2ccc(F)cc2)n(C)c1=O	-1.3	-7.8	2.1	7.5	-2.4	-14.9
55	Cc1cc(C)cc(-n2ccnc2SCC(=O)O)c1	-0.5	7.2	-20.1	9.0	7.3	0.6
56	Cc1cc(C)c(S(=O)(=O)NCCn2ccc3ccccc32)c(C)c1	1.8	-2.2	-2.6	18.6	-5.2	-0.5
57	O=C1c2ccccc2NC(c2ccccc2Br)N1CCCN1CCOCC1 (stereo unspecified)	-0.3	1.0	-11.9	-19.7	-3.9	0.7
58	Cc1ccc2[nH]c3ccccc3c(=O)c2c1	-1.9	8.9	-4.6	2.6	13.1	3.3
59	Nn1c(SCC(=O)Nc2ccc(S(N)(=O)=O)cc2)nnc1-c1ccco1	0.9	5.1	-15.2	0.4	4.0	0.1
60	COc1cc([N+](=O)[O-])cc(/C=N/NC(=O)c2cncc(Br)c2)c1O	0.0	-89.7*	-8.6	8.8	-12.1	-92.9*
61	CCc1nnc(NC(=O)CSc2ncnc3c2cnn3-c2ccc(OC)cc2)s1	0.9	24.7	-1.7	-1.2	-3.0	-2.0
62	CN1CCN(CCCCOc2ccccc2C=O)CC1	-0.7	-6.2	-21.3	12.3	-11.5	-18.3
63	CC(C)NC(=O)N1Cc2cc(C(=O)NC3CCCC3)nc(-c3cccc(-c4cccnc4)c3)c2[C@@H]1CCO	-0.5	-4.2	nt	nt	nt	-3.8
